ugtP null kill – growth inhibition of ugtP-null S. aureus, primary screen, RN4220 ugtP deletion, OD600; actives 0.54% (n = 330,000); growth inhibition, % (test concentration not listed); 16 h; some inactives read as strong as hits; AID 1259309, 2017;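 active = z-score under -3 and OD600 up to 0.15 on both plates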;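 note: plate controls were untreated wells for no effect and antibiotic for full effect; wells of about 80 µL received 100 nL stock; the first replicate is given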
Autofluor counter – counter-screen for toxin protease inhibitors: compound fluorescence; actives 3.1% (n = 360,000); compound autofluorescence counterscreen, microsphere flow cytometry; hits give high values; AID 624483; fluorescence intensity (concentration not given with the values);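 active = at least 3 SD above the mean of all compounds, about 16000 in these data; inconclusive = too few beads counted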;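 note: 100 nL of 1 mM stock went into each well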
BJeLR lethal – MLPCN primary cell-based screen for lethality selective to Ras in HRASV12 cells; BJeLR (HRASV12) viability, CellTiter-Glo ATP luminescence, 48 h; reference of the scale not given here; inhibition, % (concentration not given with the values); actives 0.17% (n = 300,000);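 active = replicate mean above 50%; inconclusive = above 50% but judged a plate artefact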;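 note: 50 nL library stock added to about 25 µL; numbers are from one replicate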
Mtb hypoxia inh – PubChem AID 1159583; M. tuberculosis hypoxia-regulated fluorescent reporter, fluorescence; actives 0.1% (n = 300,000); fluorescence inhibition, % (test concentration not listed);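 active = 35 to 45% if threefold the growth effect, above 45% if 1.5-fold the growth effect; inactive = the rest, general growth blockers included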;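 note: wells of about 50 µL received 100 nL stock; 0% = vehicle wells and 100% = reference inhibitor wells; whole bacteria with a GFP reporter of the hypoxia response; strong numbers were not always called active; many hits fall short of the cut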
RN4220 kill – growth inhibition of S. aureus RN4220, primary screen, OD600. inhibition, % (test concentration not listed). 16 h. actives 0.33% (n = 330,000). AID 1259311, 2017;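 active = z-score of -3 or lower and OD600 up to 0.18 on both plates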;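 note: plate controls were untreated cells for no effect and reference antibiotic for full effect; stock transfer was 100 nL into about 80 µL; one replicate is shown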
PrP 5UTR inh – inhibition of PrP 5' UTR reporter expression | actives 0.35% (n = 340,000) | cell-based PrP 5' UTR mRNA reporter, plate reader | inhibition, % (no concentration beside the values);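 active = every replicate at 50% or more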;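 note: 0 = median of the neutral control wells; tested in H4 reporter cells; numbers are from one replicate; inactives centre near -14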
Mtb hypoxia inh growth – also measured in Mtb hypoxia inh; calls as there; growth inhibition, %; measured here: M. tuberculosis growth (absorbance);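 0% = vehicle and 100% = reference antibiotic; read after six days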
Numbers without * were called inactive; u = inconclusive; x = no result given. Not a hit list; about 4.1% have a hit in one of these screens.

Values in the order – ugtP null kill	Autofluor counter	BJeLR lethal	Mtb hypoxia inh	Mtb hypoxia inh growth	RN4220 kill	PrP 5UTR inh
1: CC(C)NCC(=O)NC12CC3CC(CC(C3)C1)C2
    13	2360	-6	-4	1	15	-16
2: CC(Oc1ccccc1Cl)C(=O)Nc1ccccc1C(=O)N1CCOCC1 (stereo unspecified)
    -5	5554	4	1	3	6.6	-25
3: Cc1nn(-c2ccccc2)c(N)c1N=Nc1ccc2ccccc2c1
    4	2065	-3	9	1	-5.3	-90
4: O=C(C1=NOC(CNc2ncc(C(F)(F)F)cc2Cl)C1)N1CCOCC1 (stereo unspecified)
    -3	2182	-5	7	4	5.2	-14
5: Cc1nn(CCC#N)c2nc(C(F)(F)F)[nH]c(=O)c12
    -2	3234	1	9	4	10	-6
6: COC(=O)C1=C(c2cccc(C#N)c2)CC2CCC1N2C(=O)N1CCC(O)CC1 (stereo unspecified)
    -1	x	x	7	9	2.6	x
7: COc1cccc(-c2csc(/C(C#N)=C/Nc3cc4oc5ccccc5c4cc3OC)n2)c1
    x	4408	-1	x	x	x	-34
8: C=CCC(CC=C)(NC(=O)c1ccccc1C(=O)O)c1ccccc1
    2	8456	5	11	-1	-0.2	-19
9: N#Cc1ccc(COC(=O)c2cc(=O)c3ccccc3o2)cc1
    1	3097	x	11	6	1.4	2
10: Cc1nnc(-c2ccc(Oc3ccc(Br)cc3)c([N+](=O)[O-])c2)o1
    1	2593	0	19	12	4.1	-12
11: CCOC(=O)C1CCN(S(=O)(=O)c2cccc(-c3csc(C)n3)c2)CC1
    -4	2448	0	2	4	0.8	-16
12: Cn1ccnc1SCC(=O)c1ccc2ccccc2c1
    11	3734	2	11	7	7.7	-29
13: CCc1nc2ccc(C(=O)N(C)CC(=O)Nc3ccccc3C(F)(F)F)cc2nc1CC
    9	3281	x	5	5	4.4	3
14: COc1ccc(C(c2nnnn2Cc2ccccc2)N2CCN(c3nc4ccccc4s3)CC2)cc1 (stereo unspecified)
    -21	4416	-9	x	x	-5.3	2
15: COc1ccccc1CNC(=O)COC(=O)CNS(=O)(=O)c1ccc(C)cc1
    4	5390	5	4	0	2.3	-17
16: CC1=C(C(=O)OCCOc2ccccc2)C(c2ccsc2)NC(=O)N1C (stereo unspecified)
    12	4454	-11	10	7	3.6	-16
17: Cc1ccc(SCC(=O)OCC(=O)N(CC(C)C)C2CCS(=O)(=O)C2)cc1C (stereo unspecified)
    6	5393	-1	4	5	-0.7	-24
18: CN1CCN(Cc2nnc(-c3ccccc3)o2)CC1
    0	5932	2	12	1	-0.2	-27
19: CC(=O)C1(C)N(O)C(C)(C)C(c2cccs2)=[N+]1[O-] (stereo unspecified)
    5	4933	-1	2	2	1.7	-12
20: OC(COCc1ccc2c(c1)OCO2)CN1CCN(Cc2ccccc2)CC1 (stereo unspecified)
    4	3187	4	-2	1	2.5	-6

Records 11–14, quoted:
Values in the order – ugtP null kill	Autofluor counter	BJeLR lethal	Mtb hypoxia inh	Mtb hypoxia inh growth	RN4220 kill	PrP 5UTR inh
11: CCOC(=O)C1CCN(S(=O)(=O)c2cccc(-c3csc(C)n3)c2)CC1
    -4	2448	0	2	4	0.8	-16
12: Cn1ccnc1SCC(=O)c1ccc2ccccc2c1
    11	3734	2	11	7	7.7	-29
13: CCc1nc2ccc(C(=O)N(C)CC(=O)Nc3ccccc3C(F)(F)F)cc2nc1CC
    9	3281	x	5	5	4.4	3
14: COc1ccc(C(c2nnnn2Cc2ccccc2)N2CCN(c3nc4ccccc4s3)CC2)cc1 (stereo unspecified)
    -21	4416	-9	x	x	-5.3	2

(cont.)
Values in the order – ugtP null kill	Autofluor counter	BJeLR lethal	Mtb hypoxia inh	Mtb hypoxia inh growth	RN4220 kill	PrP 5UTR inh
21: Cc1ncc([N+](=O)[O-])n1CC(=O)Nc1ccc2c(c1)OCO2
    0	2563	-9	8	9	-1.6	-9
22: CCOc1cc(C(c2c(C)[nH][nH]c2=O)c2c(C)[nH][nH]c2=O)ccc1OS(=O)(=O)c1ccc(C)cc1
    8	10205	-1	4	6	9.0	-20
23: COc1ccc(/C=N/NC(=O)CCN2CCN(c3ccccc3)CC2)c(OC)c1OC
    x	8975	6	x	x	x	-10
24: COc1ccc2c(c1)/C(=N/OC(=O)c1cccs1)CCC2
    x	2688	5	x	x	x	-52
25: Cc1ccc(NS(=O)(=O)c2cc(C(=O)N3CCc4ccccc4C3)ccc2Cl)cc1
    9	9118	1	0	7	-9.5	-7
26: CC(=O)OC(COc1ccccc1)Cn1cnc2ccccc21 (stereo unspecified)
    6	3175	2	11	3	3.5	-12
27: Fc1ccc(OCCCCN2CCOCC2)cc1
    -3	4334	-7	10	6	9.8	-7
28: Cc1ccccc1N=Cc1cccc(O)c1O
    11	2097	-13	6	-1	7.6	-15
29: CC(C(=O)NC1CCCC1)N1CCN(S(=O)(=O)c2ccccc2Cl)CC1 (stereo unspecified)
    -3	4749	x	3	-4	0.8	-26
30: CCCCOC(=O)c1ccc(NC(=O)c2cc(Cl)c(Cl)cc2C(=O)O)cc1
    0	5322	1	6	7	8.9	-17
31: O=C(Nc1ccccc1C(=O)NCc1ccco1)c1ccccc1
    0	2930	-12	x	x	-4.1	-12
32: Cc1cccn2c(=O)c(C=NCCO)c(Nc3ccc(Cl)cc3)nc12
    3	x	-2	18	10	6.6	x
33: O=C(Nc1ccccc1F)C1CCN(C(=O)NCc2ccccc2)CC1
    0	6323	3	-1	-2	-2.5	-8
34: C=CCc1cccc2cc(C(=O)OCC)c(=O)oc12
    3	2477	4	-15	0	0.5	-11
35: COc1ccc(Cl)cc1N1C(=NC(=O)C2CCCO2)SC2CS(=O)(=O)CC21 (stereo unspecified)
    2	5904	5	4	5	0.8	-17
36: CC(=O)NC(CC(=O)OCC(=O)N1CCc2ccccc21)c1ccccc1 (stereo unspecified)
    0	4386	-2	6	0	0.5	-20
37: CC1(c2nnc(-c3ccc(Cl)cc3)o2)CC(c2cccc(Cl)c2)=NO1 (stereo unspecified)
    9	3945	-2	2	0	3.7	1
38: CCc1ccc(NC(=O)COC(=O)CCc2nc3cc(S(=O)(=O)N(CC)CC)ccc3n2C)cc1
    7	2719	9	14	2	-1.5	-18
39: COc1ccc(N2CCN(C(=O)c3cc(N4C(=O)C5C6CCC(C6)C5C4=O)ccc3Cl)CC2)cc1 (stereo unspecified)
    10	2222	-9	-4	-5	1.2	-31
40: O=c1cc(CO)occ1OCc1c(F)cccc1Cl
    9	4660	-4	-6	-2	13	-61
41: COc1ccc(C(=O)Nc2ccc3ncccc3c2)cc1
    4	3495	0	10	2	3.2	-19
42: CC1=C/C(=N\S(=O)(=O)c2ccccc2)C(C(C)C)=CC1=O
    x	4542	-2	x	x	x	-32
43: CC(=O)NC(Cc1ccccc1)C(=O)N1CCN(C(=O)c2cccs2)CC1 (stereo unspecified)
    10	16669*	-5	5	4	-1.0	-4
44: CC1CCCC(C)N1C(=O)/C=C/c1ccc(S(=O)(=O)N2CCOCC2)cc1 (stereo unspecified)
    4	u	x	4	4	1.4	-20
45: CCn1ncc([N+](=O)[O-])c1C(=O)Nc1nc2cccc(C)c2s1
    -3	3414	6	1	9	8.9	-20
46: O=C(Nc1ccc2nc(-c3ccc4nc[nH]c4c3)[nH]c2c1)c1cccs1
    -5	3137	-3	8	7	-2.6	-10
47: Cc1cccc(C)c1NC(=O)c1ccc(N2CCCC2=O)cc1
    -3	4084	x	-3	-1	-2.1	-28
48: O=C(NCc1nc2ccccc2[nH]1)c1cccc(S(=O)(=O)N2CCCC2)c1
    -3	4484	-9	-76	-24	3.6	-32
49: CCOc1ccc2[nH]c(=O)c(CN(CC3COCCO3)C(=O)C3CC3)cc2c1 (stereo unspecified)
    7	4176	-13	-5	6	6.8	-11
50: Cc1ccc(C)c(NS(=O)(=O)c2ccc(-c3cnc(C4CC4)o3)cc2)c1
    -8	x	52*	2	-3	25	13

Single values from the entries so far.
Mtb hypoxia inh with no. 36 is entered as 6
BJeLR lethal with no. 40 is entered as -4

Remaining list, next part:
Values in the order – ugtP null kill	Autofluor counter	BJeLR lethal	Mtb hypoxia inh	Mtb hypoxia inh growth	RN4220 kill	PrP 5UTR inh
51: Cn1c(=O)c(Oc2cc(Cl)cc(Cl)c2)nc2ccccc21
    -19	11368	12	2	2	0.6	-26
52: CSC(=S)N/N=C(\C)c1ccccc1
    x	2572	-3	x	x	x	-66
53: CCC1(CC)Cc2ccccc2C(Nc2c(C)n(C)n(-c3ccccc3)c2=O)=N1
    x	3528	4	x	x	x	-16
54: Cc1nc2ccccc2c(=O)n1-c1ccc(Br)cc1[N+](=O)[O-]
    4	2452	-10	-6	4	2.2	-5
55: c1ccc(CCN2CN(CCCN3CCOCC3)c3nc4ccccc4n3C2)cc1
    -1	3765	2	14	11	1.2	-17
56: CC(CCc1ccccc1)NC(=O)CCC1CCCC1 (stereo unspecified)
    -5	5314	3	x	x	-0.6	x
57: O=C(Nc1nc2ccccc2c(=O)s1)c1ccc(F)cc1Cl
    -4	3179	-1	-7	-8	4.5	0
58: CCOc1cccc(N2C(=O)CC(N3CCN(c4ccc(S(=O)(=O)CC)cc4)CC3)C2=O)c1 (stereo unspecified)
    10	22715*	2	1	4	3.2	-17
59: CCn1c2ccccc2c2cc(/C(C)=N/O)ccc21
    x	1969	3	x	x	x	35
60: O=C(N/N=C/c1ccc(OCc2ccccc2)cc1)c1cc[n+](Cc2ccccc2)cc1
    x	2565	4	x	x	x	-38
61: Nc1nc(-c2ccc(Cl)cc2)cn1N
    1	2668	-8	x	x	-0.5	-7
62: CCCCN1CC(=O)N2C3c4ccccc4OCC3C(C(=O)OCC)[C@]2(C)C1=O (stereo partly specified)
    -1	x	x	11	6	3.9	x
63: O=C(Cc1ccc(Cl)cc1)NC1CCCCCC1
    10	3892	-1	x	x	-5.9	-32
64: CCOC(=O)CC1=NN(c2ccccc2)C(=O)C1=Cc1ccc(OC)cc1OC
    0	x	x	1	-2	8.9	x
65: COc1cc(C=NNC(=O)CC2C(=O)NN=C2C)ccc1O (stereo unspecified)
    1	x	x	2	-2	6.6	x
66: Cc1cc(-c2ccc(C)c(S(=O)(=O)NCCC(C)N3CCCCCC3)c2)on1 (stereo unspecified)
    9	5200	-7	8	7	2.1	-20
67: O=C(N/N=C/c1cccc(C(F)(F)F)c1)c1ccccc1O
    x	4655	9	x	x	x	-38
68: Cc1[nH]nc(SCC(=O)NCc2ccc(F)cc2)c1[N+](=O)[O-]
    4	2260	0	-2	-7	2.0	-30
69: COc1cc(Cl)c([C@@H]2C[C@H]3CN(c4ccccc4)C(=O)[C@]34CCCN24)cc1OC
    13	3118	-2	-12	-4	-2.1	-17
70: O=C(O)CCC(=O)Nc1ccccc1C(=O)NCc1ccccc1
    -3	2413	-3	-5	4	-6.3	-4
71: CC(=O)N=c1sc(S(N)(=O)=O)nn1C
    -5	4210	-2	9	2	4.2	-25
72: COc1cc(C2NC(=O)c3ccccc3O2)cc(OC)c1OC (stereo unspecified)
    2	8289	3	-2	2	0.3	-7
73: CCOC(=O)c1ccc(NC(=O)COc2ccccc2OC)cc1
    -3	3422	5	-3	-3	2.2	-15
74: Cc1ccc(NC(=O)Cn2cc3c(n2)CCC(C)C3)cc1 (stereo unspecified)
    3	5125	4	x	x	1.6	-7
75: CC(=O)c1ccc(N2CCN(c3ccc(C(N)=O)cc3[N+](=O)[O-])CC2)cc1
    5	2224	1	13	5	7.9	-24
76: CC(C)NC(=O)c1ccccc1S(=O)(=O)c1ccccc1C#N
    -1	7221	7	x	x	-1.8	-17
77: CC(C)(C)C(=O)C(CO)(Oc1ccc(Cl)cc1)n1cncn1 (stereo unspecified)
    -15	3329	-7	-4	-3	-8.4	3
78: CCOC(=O)C1(Cc2ccc(OC)cc2)CCN(C(=O)CCc2cnccn2)CC1
    1	4078	13	2	1	3.3	-14
79: CCOC(=O)N1CCC(N2Cc3cccc(C(=O)NCc4ccc5c(c4)OCO5)c3C2=O)CC1
    9	4196	1	0	-4	-4.0	-24
80: Cc1ccc(NC(=O)Cc2nnc(SCC(=O)c3ccc(Br)cc3)n2C)cc1Cl
    -3	x	4	-3	-3	0.6	x
81: Cc1ccc2nc(NCc3ccccc3)c(C=O)c(=O)n2c1
    x	2097	3	x	x	x	-16
82: CCNC(=O)/C(C#N)=C/c1c(N2CCCCCC2)nc2ccccn2c1=O
    3	3259	-20	15	-1	3.4	x
83: Cc1ccc(C(=O)N/C(=C\c2cccs2)c2nc3ccccc3[nH]2)cc1
    19	2120	-2	-1	2	11	-29
84: COc1ccc2c(c1)CCc1c-2n[nH]c1C(=O)O
    -3	3555	x	x	x	0.7	-6
